D2 PAM: Beta-Arrestin HTS for Positive Allosteric Modulators of the Human D2 Dopamine Receptor: Potentiators. AID 624464, 2012. D(2) dopamine receptor (Homo sapiens), P14416. potentiation, % (test concentration not listed). DiscoveRx D2 beta-arrestin cells, luminescence, 90 min; 100% = 57 uM dopamine signal. actives 0.23% (n = 360,000); active = potentiation of 50% or more; inconclusive = 30% to 50%; inactive = 30% or less;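 also: compound concentration not given in the record; tested on top of an EC20 dose of dopamine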
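D2 cells co-treated with compound plus 50 nM dopamine (EC20) for 90 min at 37 deg C to detect potentiation. Beta-arrestin recruitment was read as enzyme-fragment luminescence after 1 h at ambient temperature. Full response was set by 57 uM dopamine.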
Six1-Eya2 inh: qHTS Assay for Inhibitors of the Six1/Eya2 Interaction | actives 0.56% (n = 360,000) | activity change, % (concentration not given with the values) | AlphaScreen GST-Six1/His-Eya2 binding, biochemical; hits give low values; control for the full effect not named in the record; in the data active = activity change below about -65%; inconclusive = about -30% to -65%; inactive = above about -30%; also: % is scaled to controls: 0 for no effect and ±100 for the full control effect
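Six1/Eya2 binding was read as AlphaScreen signal after compounds were pinned into GST-Six1 plus His-tagged Eya2 (5X stock 250/500 nM) in pH 8.0 Tris/NaCl/TCEP buffer, beads added, then incubated 1 h, 37 C, dark.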
CtBP-E1A inh: qHTS Assay for Inhibitors of the CtBP/E1A Interaction | actives 0.49% (n = 340,000) | CtBP / adenovirus E1A interaction (AlphaScreen) | AlphaScreen GST-E1A/His-CtBP binding, 1536-well; hits give low values; control for the full effect not named in the record | AID 651724, 2012 | activity change, % (no concentration beside the values); in the data active means activity change below about -65%; inconclusive means about -30% to -65%; inactive means above about -30%; also: % is scaled to controls: 0 for no effect and ±100 for the full control effect; compound concentration not given in the record
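AlphaScreen with 125 nM GST-E1A and 125 nM His-CtBP (5X stocks) in Tris pH 8.0, 300 mM NaCl, BSA, Tween 20, TCEP. Compounds preincubated 2 h at 37 deg C, then glutathione donor/nickel acceptor beads added for 1 h at 37 deg C in dark.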
TRPML1 blocker: qHTS for Inhibitors of the Human Mucolipin Transient Receptor Potential 1 (TRPML1). activity change, negative = inhibition, % (concentration not given with the values). TRPML1-inducible cells, Ca2+ dye fluorescence, FDSS; hits give low values; inhibition of EC80 agonist-evoked calcium signal. Mucolipin-1 (Homo sapiens), Q9GZU1. actives 0.02% (n = 390,000); in the data active means activity change below about -50%; inconclusive means about -30% to -50%; inactive means above about -30%;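 also: stimulus is agonist 54-4 at its EC80 concentration; % is scaled to controls: 0 for no effect and ±100 for the full control effect; compound concentration not given in the record; the text of the record puts the active cut at -80%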
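TRPML1-DL cells, Tet-induced overnight (~16 h, 37 °C) at 1,500 cells/well, were loaded with Ca8 no-wash dye plus quencher for 45-90 min at room temperature. Compounds were pinned during FDSS kinetic reading; agonist 54-4 at EC80 (4 uM final) then added.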
TRPV1 potentiator: HTS Assay for Compounds that Act as Potentiators of the Vanilloid Receptor 1; Transient receptor potential cation channel subfamily V member 1 (Homo sapiens), Q8NER1; TRPV1-expressing cells, Fluo-8 calcium influx, capsaicin EC20 potentiation; host cell line not named in the record; control for the full effect not named in the record; potentiation, % at 8.33 µM; actives 0.02% (n = 320,000); AID 540277, 2011; active means potentiation above 80%; inconclusive means 30% to 80%; inactive means below 30%; also: 0% is about no effect
Target sequence (Q8NER1 whole entry, looked up): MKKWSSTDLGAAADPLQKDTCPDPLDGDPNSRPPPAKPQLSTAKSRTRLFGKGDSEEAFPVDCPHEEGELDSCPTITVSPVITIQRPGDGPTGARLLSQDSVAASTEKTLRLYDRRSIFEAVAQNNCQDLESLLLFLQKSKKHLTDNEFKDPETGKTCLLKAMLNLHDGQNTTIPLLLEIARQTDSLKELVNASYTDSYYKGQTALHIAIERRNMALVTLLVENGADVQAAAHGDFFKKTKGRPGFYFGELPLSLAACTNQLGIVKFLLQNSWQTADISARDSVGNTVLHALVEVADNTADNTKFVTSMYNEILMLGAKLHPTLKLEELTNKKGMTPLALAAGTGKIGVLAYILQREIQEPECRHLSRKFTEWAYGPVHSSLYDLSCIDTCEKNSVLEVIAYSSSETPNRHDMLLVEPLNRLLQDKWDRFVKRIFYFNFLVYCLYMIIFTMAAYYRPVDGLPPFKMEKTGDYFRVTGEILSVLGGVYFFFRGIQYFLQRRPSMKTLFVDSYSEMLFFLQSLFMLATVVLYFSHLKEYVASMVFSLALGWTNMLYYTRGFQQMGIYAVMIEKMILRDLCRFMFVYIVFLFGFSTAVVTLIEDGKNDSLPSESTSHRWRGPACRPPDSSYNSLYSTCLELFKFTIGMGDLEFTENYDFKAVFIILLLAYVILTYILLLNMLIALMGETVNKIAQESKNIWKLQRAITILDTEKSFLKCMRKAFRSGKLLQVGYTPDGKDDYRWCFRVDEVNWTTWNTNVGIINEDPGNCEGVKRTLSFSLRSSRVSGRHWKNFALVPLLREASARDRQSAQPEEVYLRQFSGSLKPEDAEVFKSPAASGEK
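Fluo-8 calcium influx in TRPV1-expressing cells, kinetic read (ex 480/em 520 nm). Compound added and read 3 min for agonist activity, followed by capsaicin at EC20 final and 2 min further read for enhancement.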
TRPML1 agonist: qHTS for Agonists of the Human Mucolipin Transient Receptor Potential 1 (TRPML1); activation, % (test concentration not listed); actives 0.12% (n = 410,000); Mucolipin-1 (Homo sapiens), Q9GZU1; AID 624414, 2012; TRPML1-expressing cells, Ca2+ dye fluorescence, FDSS; host cell line not named in the record; reference of the full effect not given here; in the data active = activation above about 50%; inconclusive = about 30% to 50%; inactive = below about 30%; also: 0% is about no effect; the text of the record puts the active cut at 80%
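Cells: TRPML1-DL, 1X Tet inducer, ~16 h at 37 degrees C/5% CO2. Dye: ABD Ca8 no-wash + quencher, 45-90 min RT. Read: 10 s baseline, compound add, 110 s agonist phase; 54-4 EC80 (4uM final), 110 s antagonist phase.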
* marks the source's active call; other numbers are inactive results; ? = inconclusive; · = no result given. Compounds as they come. About 0.95% of those tested had a hit in this group.

Each structure is followed by: D2 PAM	Six1-Eya2 inh	CtBP-E1A inh	TRPML1 blocker	TRPV1 potentiator	TRPML1 agonist
- Cc1[nH]nc2c(=S)[nH]c(=O)[nH]c12
  -14.8	6.5	13.7	11.9	·	0.2
- CCc1ccc(-c2ccc(C(=O)O)c(C)n2)cc1
  -2.5	2.0	7.1	7.9	-1.1	0.2
- CCc1nc2c(OCc3ccc(C(F)(F)F)cc3)cccn2c1N(C)C(=O)c1ccc(C)cc1
  -12.1	-8.9	-12.7	44.7	·	1.9
- Cc1ccc(C(N)=S)c(C)c1
  -13.8	5.9	1.5	8.0	-3.3	-0.4
- COc1ccc(NS(=O)(=O)c2cccc(NC(=O)c3ccccn3)c2)cc1
  -9.4	-6.2	·	17.1	-11.5	0.2
- CC1(C(=O)NC2CCCCCC2)CCN1C(=O)C1(c2ccccc2)CC1 (stereo unspecified)
  -11.7	4.3	7.1	8.3	·	0.4
- Cc1cc(C)c(-c2c(O)c3ccccc3n(C)c2=O)c(C)c1
  -19.0	4.8	·	50.4	·	-0.5
- Cc1cc(C)nc(SCc2ccc(C(=O)N/N=C/c3ccc(C(=O)O)cc3)cc2)n1
  2.5	-17.5	0.0	25.8	6.8	-0.6
- Cc1sc2ncnc(SCC(=O)NC(=O)c3cccn3C)c2c1C
  -2.1	1.1	-0.1	-21.9	-2.2	1.1
- CC(C)C(NS(=O)(=O)c1cccs1)C(=O)N1CCC(C(N)=O)CC1 (stereo unspecified)
  -2.9	2.3	-6.9	25.2	3.7	0.1
- COc1ccc(OCC(=O)Nc2ccc3c(c2)nc(CCn2ccccc2=O)n3C)cc1
  2.5	1.4	3.1	-15.2	19.8	-0.9
- O=C(Nc1ccc(N2CCCCC2)c(C(=O)O)c1)c1ccco1
  -16.0	-0.4	-0.4	6.4	-0.5	0.0
- CN(C)CCNc1nc2c(c(=O)[nH]c(=O)n2C)n1CC(O)COc1ccc(Cl)cc1Cl (stereo unspecified)
  -37.3	-1.9	-0.3	-2.1	-10.8	-0.3
- CCC/C(=N\NC(=O)c1csc(C)c1C)c1cccs1
  -31.9	0.5	-0.8	-13.2	-8.3	0.9
- Cc1cc2c(cc1S(=O)(=O)N1CCN(c3cccc(C)c3C)CC1)OCCN2C
  -10.0	-15.3	?	-6.1	2.9	-0.3
- COc1cc(CCC(=O)Nc2ccc(S(=O)(=O)NC3=NCCCCC3)cc2)cc(OC)c1OC
  -5.2	0.0	2.3	5.2	19.4	-0.1
- N#CC(OC(=O)c1ccccc1)c1ccccc1 (stereo unspecified)
  -0.4	18.1	10.2	9.6	·	2.0
- COc1cccc(-c2nnn(CC(=O)N(C3CCCCC3)C3CCS(=O)(=O)C3)n2)c1 (stereo unspecified)
  13.4	5.3	4.7	1.8	·	-0.7
- CCOc1cc(/C=C/c2cc(C(=O)O)c3ccccc3n2)ccc1O
  -6.0	3.4	-5.0	4.5	13.1	1.9
- COc1ccc(CN2CCC(Oc3ccc(C(=O)N4CCCC4)cc3)CC2)c(F)c1
  -29.0	0.0	2.4	-3.2	2.4	-0.2
- CSc1ncccc1C(=O)OCn1nnc2ccccc2c1=O
  -0.6	-1.6	-0.5	6.7	-17.2	-0.4
- CNc1c(NS(=O)(=O)c2ccc(F)cc2)c(=O)oc2ccccc12
  0.6	-1.2	2.1	-17.3	2.9	0.3
- Cc1cc(C(=O)CSc2ccc3c(c2)OCCO3)c(C)n1C1CC1
  -6.0	-15.8	-12.1	-19.7	-11.1	0.0
- C[C@@H]1CN([C@H](C)CO)C(=O)CCCn2nncc2CO[C@@H]1CN(C)C(=O)NC1CCCCC1
  -2.5	5.2	2.0	8.5	·	-0.2
- COc1ccc2c(c1)nc(NCCCO)n2Cc1ccccc1
  -5.8	1.1	-0.3	-0.5	-2.6	0.7
- CCN(CC(=O)Nc1c(F)cccc1F)C(=O)c1csc2c1CCCC2
  -28.9	-1.1	4.6	-1.8	-11.5	-1.1
- COc1ccccc1CNC(=O)COC(=O)c1cccs1
  -2.6	5.8	10.7	-2.3	·	-0.7
- CCOc1cc(C2C(C(=O)OC)=CN(C3CCCC3)C=C2C(=O)OC)cc(Br)c1O
  -8.8	8.3	16.5	28.7	-4.7	2.1
- C=CC(=O)Nc1sc2c(c1C(N)=O)CCCC2
  -21.3	13.0	4.2	25.5	-9.3	-1.0
- OC[C@@H]1CN(CCN2CCOCC2)C[C@H](n2cnc3c(N4CCOCC4)ncnc32)O1
  -7.3	1.1	1.0	·	·	-0.3

Following part:
Compound	D2 PAM	Six1-Eya2 inh	CtBP-E1A inh	TRPML1 blocker	TRPV1 potentiator	TRPML1 agonist
Cc1cccc(C)c1NC(=O)c1sc(Cl)nc1C	-2.6	2.1	-0.7	0.7	6.0	1.2
CCOc1cccc2c1OC1(C)CC2NC(=O)N1Cc1ccccc1 (stereo unspecified)	-9.9	0.0	-22.4	·	-1.7	·
CCCc1[nH]n(-c2ccc([N+](=O)[O-])cc2)c(=O)c1C=NCCCn1ccnc1	-1.5	-20.5	-12.1	-9.3	-5.2	-0.2
COc1ccc(N(C(=O)c2ccco2)C(C(=O)NC2CCCC2)c2ccc(N(C)C)cc2)cc1 (stereo unspecified)	5.0	-25.2	-4.2	1.7	-7.4	-1.0
CCc1ccc(NC(=O)CSc2nc(C)cs2)cc1	-23.0	-12.8	-19.2	12.0	·	-0.8
O=C(CSc1nnc(CNC(=O)c2ccco2)o1)NC1CCCC1	6.6	3.3	4.1	-13.6	20.6	0.4
Cc1cc(S(=O)(=O)NCCCn2ccnc2)c(C)cc1Cl	-3.2	0.0	-9.2	5.4	-4.1	0.4
CCCCN(C)CCNC(=O)C1CCN(S(=O)(=O)c2cccc3nsnc23)CC1	-11.6	8.2	·	8.3	12.2	0.2
CN(C)C(=O)CSc1nnc(-c2cccs2)n1-c1ccccc1	-0.7	-0.2	0.8	5.4	-4.9	1.9
CN(C(=O)CSc1nnc(-c2ccc(F)cc2)n1C)C1CCS(=O)(=O)C1 (stereo unspecified)	2.5	0.8	2.1	-8.1	·	-0.4

Next section:
Compound	D2 PAM	Six1-Eya2 inh	CtBP-E1A inh	TRPML1 blocker	TRPV1 potentiator	TRPML1 agonist
COc1cc2c(cc1NC(=O)CSc1nnc(COc3ccc(Cl)cc3)n1C)oc1ccccc12	-8.8	-4.5	-2.7	3.4	1.1	1.2
COCCN(Cc1ccc(C)c(Br)c1)C(=O)Cn1cnc(S(=O)(=O)N2CCCC2)c1	-7.0	0.0	7.5	-6.2	20.1	0.2
CN(C)c1ccc(C(=S)N2CCOCC2)cc1	-7.8	-0.5	3.0	-3.8	23.5	0.0
S=C(Nc1ccccc1Cl)N1CCCC(c2ccccc2)=N1	-5.0	7.2	6.7	4.7	0.4	0.1
Cc1ccnc(NS(=O)(=O)c2ccc(NC(=O)Cc3ccccc3)cc2)n1	-4.1	11.6	5.3	8.0	-1.7	0.5
O=C(COc1ccccc1)Nc1ccccc1F	-3.5	4.2	13.2	15.8	-3.0	0.1
O=C(Cn1ncc2c3ccccc3n(Cc3ccccc3)c2c1=O)NCCCN1CCCC1=O	-8.0	-1.1	-11.0	1.7	10.4	-0.6
CCCn1c(=O)c2ccccc2n2c(SCCOc3ccc(OC)cc3)nnc12	-7.0	-6.9	-2.5	-20.7	-19.5	-0.2
c1ccc(-c2cc(-c3ccncc3)nc3ccc4ccccc4c23)cc1	-5.2	1.0	0.4	16.3	-4.1	-0.7
Cc1ccc2nc(SCC(=O)Nc3ccc(F)cc3F)nc(=O)n2c1	-7.8	1.6	-4.9	35.0	-1.8	-0.2

Among those listed so far, these have bromine:
Compound	D2 PAM	Six1-Eya2 inh	CtBP-E1A inh	TRPML1 blocker	TRPV1 potentiator	TRPML1 agonist
CCOc1cc(C2C(C(=O)OC)=CN(C3CCCC3)C=C2C(=O)OC)cc(Br)c1O	-8.8	8.3	16.5	28.7	-4.7	2.1
COCCN(Cc1ccc(C)c(Br)c1)C(=O)Cn1cnc(S(=O)(=O)N2CCCC2)c1	-7.0	0.0	7.5	-6.2	20.1	0.2

Next part.
Compound	D2 PAM	Six1-Eya2 inh	CtBP-E1A inh	TRPML1 blocker	TRPV1 potentiator	TRPML1 agonist
COc1cc2c(cc1OC)C(=S)NC1(CCCC1)C2	-16.7	-13.3	7.0	20.3	4.6	0.4
Cc1[nH]n(-c2ccccc2)c(=O)c1N=Nc1ccc2c(c1)OCCO2	-3.4	-26.3	-20.4	13.4	?	1.9
CCCCCCCCN1C(=O)[C@H](CC(=O)N2CCSCC2)C[C@@]2(C(=O)OC)CCCCC=C12	·	-15.5	1.5	·	·	-0.7
O=C(c1ccco1)N1CCN(C(=O)c2ccc(CS(=O)c3ccc(F)cc3)o2)CC1 (stereo unspecified)	-10.4	-0.6	-12.2	17.7	5.2	0.1
CCN(CC)c1ccc(/C=N/N2CCOCC2)c(O)c1	-9.1	-10.5	1.3	5.0	-2.9	0.2
NC(=O)CN1C(=O)C2C3CCC(C3)C2C1=O (stereo unspecified)	-8.2	-1.1	0.0	9.2	·	0.7

An excerpt of the results above, as a working copy:
Compound	D2 PAM	Six1-Eya2 inh	CtBP-E1A inh	TRPML1 blocker	TRPV1 potentiator	TRPML1 agonist
CCN(CC)c1ccc(/C=N/N2CCOCC2)c(O)c1	-9.1	-10.5	1.3	5.0	-2.9	0.2
NC(=O)CN1C(=O)C2C3CCC(C3)C2C1=O (stereo unspecified)	-8.2	-1.1	0.0	9.2	·	0.7
